# Screening data from PubChem.
# RN4220 kill = growth inhibition of S. aureus RN4220, primary screen, OD600; 16 h; inhibition, % (test concentration not listed); 330,000 compounds, 0.33% hits; AID 1259311, 2017;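 active means z-score of -3 or lower and OD600 up to 0.18 on both plates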;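 further: plate controls were untreated cells for no effect and reference antibiotic for full effect; stock transfer was 100 nL into about 80 µL; one replicate is shown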
# PrP 5UTR inh = inhibition of PrP 5' UTR reporter expression; cell-based PrP 5' UTR mRNA reporter, plate reader; AID 488862, 2010; inhibition, % (test concentration not listed); 340,000 compounds, 0.35% hits;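 active means every replicate at 50% or more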;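 further: 0 = median of the neutral control wells; tested in H4 reporter cells; numbers are from one replicate; inactives centre near -14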
# Mtb hypoxia rep = PubChem AID 1159583 | 300,000 compounds, 0.1% hits | M. tuberculosis hypoxia-regulated fluorescent reporter, fluorescence | fluorescence inhibition, % (concentration not given with the values);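 active means 35 to 45% if threefold the growth effect, above 45% if 1.5-fold the growth effect; inactive means the rest, general growth blockers included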;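 further: wells of about 50 µL received 100 nL stock; 0% = vehicle wells and 100% = reference inhibitor wells; whole bacteria with a GFP reporter of the hypoxia response; strong numbers were not always called active; many hits fall short of the cut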
# BJeLR viability = MLPCN primary cell-based screen for lethality selective to Ras in HRASV12 cells; AID 1554, 2009; 300,000 compounds, 0.17% hits; inhibition, % (no concentration beside the values); BJeLR (HRASV12) viability, CellTiter-Glo ATP luminescence, 48 h; reference of the scale not given here;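 active means replicate mean above 50%; inconclusive means above 50% but judged a plate artefact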;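 further: 50 nL library stock added to about 25 µL; numbers are from one replicate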
# ugtP null kill = growth inhibition of ugtP-null S. aureus, primary screen, RN4220 ugtP deletion, OD600 | 16 h; some inactives read as strong as hits | growth inhibition, % (test concentration not listed) | 330,000 compounds, 0.54% hits | AID 1259309, 2017;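 active means z-score under -3 and OD600 up to 0.15 on both plates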;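 further: plate controls were untreated wells for no effect and antibiotic for full effect; wells of about 80 µL received 100 nL stock; the first replicate is given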
# Bead autofluor = compound fluorescence in toxin protease inhibitor counterscreen. compound autofluorescence counterscreen, microsphere flow cytometry; active compounds read high. fluorescence intensity (concentration not given with the values). 360,000 compounds, 3.1% hits. AID 624483;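 active means at least 3 SD above the mean of all compounds, about 16000 in these data; inconclusive means too few beads counted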;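 further: 100 nL of 1 mM stock went into each well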
# Mtb hypoxia rep growth = further read-out of Mtb hypoxia rep, marked with its call; growth inhibition, %; measured here: M. tuberculosis growth (absorbance);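 0% = vehicle and 100% = reference antibiotic; read after six days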
# * marks the source's active call; other numbers are inactive results; u = inconclusive; x = no result given; & = joins results of further samples. Outcome played no part in choosing rows; overall some 4% were active at least once.
SMILES,RN4220 kill,PrP 5UTR inh,Mtb hypoxia rep,Mtb hypoxia rep growth,BJeLR viability,ugtP null kill,Bead autofluor
Cc1sc2nc(COC(=O)C(NC(=O)c3ccc(Cl)cc3Cl)C(C)C)[nH]c(=O)c2c1C (stereo not drawn),2.7,0,0,10,-14,-2,9882
Cc1cc(C(F)(F)F)nn1CC(=O)NCc1ccccc1,6.3,-14,9,8,-1,1,2926
CCOC(=O)c1ccc(-c2ccc3c(c2)CCC3)nc1C,-1.6,-58,12,-7,4,18,3894
COc1ccccc1C(=O)n1nc(-c2cccnc2)nc1NCc1ccccc1,1.1,-6,-7,-6,-7,17,3402
CC(=O)Nc1ccc(N(C(=O)CNC(=O)c2ccco2)C(C(=O)NCc2ccco2)c2ccccc2)cc1 (stereo not drawn),1.6,-22,-10,-9,-4,-2,3393
CC(C)NC(=O)c1sc2nc3c(c(-c4cccs4)c2c1N)CN(C)CC3,x,5,x,x,6,x,2421
O=C(NCc1ccco1)c1cc2nc(C3CC3)cc(C(F)(F)F)n2n1,-1.2,-38,x,x,3,-5,4842
Cc1sc(-c2ccccn2)nc1OC(=O)c1cccc(Cl)c1Cl,11,-10,21,1,-22,14,u
Cc1ccc(NC(=O)CN2CCN(CCN=CC3=C(O)CC(c4ccc(C)cc4)CC3=O)CC2)cc1 (stereo not drawn),6.4,-12,11,11,10,1,3443
COc1ccc(OC)c(C2=NOC(C(=O)NCc3cccs3)C2)c1 (stereo not drawn),3.2,-12,4,-1,2,6,2233
O=C(O)CCC(=NNC(=O)CNC(=O)c1ccc(F)cc1)c1ccccc1,0.7,x,-8,3,x,3,x
COCCn1c(C)cc(C(=O)CSc2nc3ccccc3c(=O)n2C(C)COC)c1C (stereo not drawn),-10,5,-8,-1,3,-8,3458
Cc1cccc(Oc2cc([N+](=O)[O-])cc3c2C(=O)Nc2ccccc2O3)c1,98*,-32,1,-3,2,97*,3226
COc1ccc2c(CC(=O)Nc3cccc(S(=O)(=O)N4CCOCC4)c3)coc2c1,-2.3,-18,5,8,2,1,6895
COc1cc(NC(=O)c2onc(C)c2Cl)c(OC)cc1Cl,10.0,-23,4,2,-2,15,6181
CCN(C[C@H]1N[C@@](Cc2ccccc2)(C(=O)OC)[C@H]2C(=O)N(Cc3ccccc3)C(=O)[C@@H]12)S(=O)(=O)c1ccc(F)cc1,1.7,6,-11,-2,x,3,3589
Cc1cc(C(=O)Nc2ccc3c(c2)OCCO3)c2ccccc2n1,6.6,-65,13,6,2,-69,3324
CC1CCN(Cc2c(C(=O)NN=Cc3ccc(OC(C)C)cc3)nnn2-c2nonc2N)CC1,2.4,x,9,3,x,0,x
CSCC[C@H](NC(=O)c1cccs1)C(=O)N1CCC2(CC1)NCCc1[nH]cnc12,4.7,-19,11,11,-9,7,5764
CC(=O)NN1C(=O)c2ccccc2NC1c1ccccn1 (stereo not drawn),3.7,-27,9,1,-3,5,8956
CCN1CC=C(c2c[nH]c3ccccc23)CC1,-14,0,14,8,6,-3,3516
NNC(=O)COc1ccc(F)cc1,-0.5,-32,0,4,-4,9,2153
CC(C)(C)C(=O)O[C@H]1CC[C@@]2(C)C(=CC(=O)C3C2CC[C@]2(C)C(=O)[C@H](O)CC32)C1 (stereo partly drawn),6.0,-13,0,0,x,3,3434
Cc1ccc(CSc2nnc(-c3ccncc3)o2)c(C)c1,15,-12,17,15,-4,17,4133
O=CNC(Cc1ccccc1)C(=O)O (stereo not drawn),7.3,-27,8,6,-16,0,4392

# Another view of part of the listing above:
smiles | RN4220 kill | PrP 5UTR inh | Mtb hypoxia rep | Mtb hypoxia rep growth | BJeLR viability | ugtP null kill | Bead autofluor
COc1ccc(OC)c(C2=NOC(C(=O)NCc3cccs3)C2)c1 (stereo not drawn) | 3.2 | -12 | 4 | -1 | 2 | 6 | 2233
O=C(O)CCC(=NNC(=O)CNC(=O)c1ccc(F)cc1)c1ccccc1 | 0.7 | x | -8 | 3 | x | 3 | x
COCCn1c(C)cc(C(=O)CSc2nc3ccccc3c(=O)n2C(C)COC)c1C (stereo not drawn) | -10 | 5 | -8 | -1 | 3 | -8 | 3458
Cc1cccc(Oc2cc([N+](=O)[O-])cc3c2C(=O)Nc2ccccc2O3)c1 | 98* | -32 | 1 | -3 | 2 | 97* | 3226
COc1ccc2c(CC(=O)Nc3cccc(S(=O)(=O)N4CCOCC4)c3)coc2c1 | -2.3 | -18 | 5 | 8 | 2 | 1 | 6895
COc1cc(NC(=O)c2onc(C)c2Cl)c(OC)cc1Cl | 10.0 | -23 | 4 | 2 | -2 | 15 | 6181
CCN(C[C@H]1N[C@@](Cc2ccccc2)(C(=O)OC)[C@H]2C(=O)N(Cc3ccccc3)C(=O)[C@@H]12)S(=O)(=O)c1ccc(F)cc1 | 1.7 | 6 | -11 | -2 | x | 3 | 3589
Cc1cc(C(=O)Nc2ccc3c(c2)OCCO3)c2ccccc2n1 | 6.6 | -65 | 13 | 6 | 2 | -69 | 3324
CC1CCN(Cc2c(C(=O)NN=Cc3ccc(OC(C)C)cc3)nnn2-c2nonc2N)CC1 | 2.4 | x | 9 | 3 | x | 0 | x
CSCC[C@H](NC(=O)c1cccs1)C(=O)N1CCC2(CC1)NCCc1[nH]cnc12 | 4.7 | -19 | 11 | 11 | -9 | 7 | 5764
CC(=O)NN1C(=O)c2ccccc2NC1c1ccccn1 (stereo not drawn) | 3.7 | -27 | 9 | 1 | -3 | 5 | 8956
CCN1CC=C(c2c[nH]c3ccccc23)CC1 | -14 | 0 | 14 | 8 | 6 | -3 | 3516
NNC(=O)COc1ccc(F)cc1 | -0.5 | -32 | 0 | 4 | -4 | 9 | 2153
CC(C)(C)C(=O)O[C@H]1CC[C@@]2(C)C(=CC(=O)C3C2CC[C@]2(C)C(=O)[C@H](O)CC32)C1 (stereo partly drawn) | 6.0 | -13 | 0 | 0 | x | 3 | 3434
Cc1ccc(CSc2nnc(-c3ccncc3)o2)c(C)c1 | 15 | -12 | 17 | 15 | -4 | 17 | 4133
O=CNC(Cc1ccccc1)C(=O)O (stereo not drawn) | 7.3 | -27 | 8 | 6 | -16 | 0 | 4392

# (list continues)
SMILES,RN4220 kill,PrP 5UTR inh,Mtb hypoxia rep,Mtb hypoxia rep growth,BJeLR viability,ugtP null kill,Bead autofluor
NS(=O)(=O)c1ccc(N=Cc2c(O)n(C3CCCCC3)c(=O)n(C3CCCCC3)c2=O)cc1,61,-27,6,7,1,78,11216
COc1ccc(/C=C2\SC(=S)N(CCC(=O)N3CCCCC3)C2=O)cc1,x,-22,x,x,2,x,3029
Cc1cc2occ(CC(=O)NC3=NCCS3)c2cc1C(C)C,17,-21,4,2,-5,-4,4193
CCC(C(=O)NC(C)(C)C)N(C(=O)Cn1nnc(-c2ccccc2F)n1)c1cccc2c1CCCC2 (stereo not drawn),-0.3,-27,4,7,-1,4,10963
COC(=O)c1cc(Br)ccc1-c1ccc(/C=N/n2nnnc2N)o1,x,-9,x,x,-1,x,6609
N#Cc1c(Nc2ccccc2)sc(C(=O)c2ccccc2)c1N,3.7,-5,-1,-7,0,7,2545
CCCC1CC(C)(C(C)=NNC(N)=S)OC1=O (stereo not drawn),8.7,x,18,5,x,2,x
O=C(NN1CC(C(=O)OCc2ccc(Br)cc2)CC1=O)c1ccccc1 (stereo not drawn),4.3,6,4,9,-2,5,6746
CCSc1nc2sc3c(c2c(=O)[nH]1)CC(C)(CC)OC3 (stereo not drawn),21,-15,7,12,2,-15,10718
COC(=O)C1=C(c2cccc(OC)c2OC)CC2CCC1N2C(=O)NC1CCCCC1 (stereo not drawn),-4.0,x,3,9,x,-11,x
CCOc1ccccc1N(CC)C(=O)Cn1ncc2c(=O)oc3ccccc3c21,-7.9,-10,7,6,5,-2,5949
O=C(N/N=C/c1ccc(N2CCOCC2)o1)c1cccc([N+](=O)[O-])c1,x,2,x,x,7,x,1991
Cc1ccc(OCC(=O)N2CCN(Cc3ccc4c(c3)OCO4)CC2)cc1,-0.3,-8,0,5,4,7,3721
O=[N+]([O-])c1ccccc1N/N=C/c1ccccc1,x,-90,x,x,3,x,3715
CCCNC(=O)C(Cc1ccc(OC)cc1)NC(=O)c1ccc(Cl)cc1 (stereo not drawn),2.8,-14,4,13,x,5,3626
CCOc1cc(-c2noc(N)c2C#N)cc(OCC)c1OCC,7.1,-10,10,6,3,-1,4001
CCCc1cc(=O)oc2cc(C)cc(OCC(=O)NCCN3CCOCC3)c12,-1.5,-4,8,5,-4,9,6578
CCCCN(C)C(=S)Nc1ccc(Oc2ccccc2)cc1,-2.0,-19,-18,1,-3,-12,2063
O=C(Nc1ccc(Cl)cc1)Nc1nnc(CSCc2ccccc2)s1,5.9,12,6,5,21,-4,2154
Cc1ccccc1NC(=O)CCCCCN1C(=O)[C@@H]2Cc3ccccc3CN2C1=O,-1.9,2,-5,-3,-1,-1,6966
C#CCOCCOCCOCCNc1nc(N2CCN(C(=O)C(CCC(=O)O)n3cc(C(N)CCCCN)nn3)CC2)nc(N2CCN(C(=O)C(CCCCN)n3cc(C(N)C(C)CC)nn3)CC2)n1 (stereo not drawn),3.4,x,13,11,x,0,x
O=C(Nc1ccc(S(=O)(=O)N2CCCCC2c2cccnc2)cc1)c1c(F)cccc1F (stereo not drawn),-1.6,-15,8,-3,-3,-9,2499
CCCN1C2CCCC1CC(NC(=O)NC13CC4CC(CC(C4)C1)C3)C2 (stereo not drawn),-0.4,-31,-7,4,0,5,3709
Cc1nc2ccccc2n1N=Cc1ccc([N+](=O)[O-])o1,101*,x,x,x,x,100*,x
Cc1cc(NC(=O)CN2CCN(c3ccc(O)cc3)CC2)no1,5.8,-16,5,5,-12,-7,9755

# The list continues.
SMILES,RN4220 kill,PrP 5UTR inh,Mtb hypoxia rep,Mtb hypoxia rep growth,BJeLR viability,ugtP null kill,Bead autofluor
COc1ccccc1N1CCN(C(=O)c2sc3nc(C)nc(N4CCN(c5ccccn5)CC4)c3c2C)CC1,0.5,-11,-5,0,-10,5,4085
O=Cc1c(OCc2ccccc2)ccc2ccccc12,0.2,-58,-10,-13,3,35,4594
Cc1nc2ccc(NC(=O)[C@H](C)N3C(=O)C4CC=CCC4C3=O)cc2s1 (stereo partly drawn),5.0,-10,x,x,x,10,4255
Cc1c(OC(C)C(=O)N2C[C@H]3C[C@@H](C2)c2cccc(=O)n2C3)ccc2c3c(c(=O)oc12)CCC3 (stereo partly drawn),2.8,-14,x,x,1,1,5296
COc1ccc2cc3[n+](cc2c1OC)CCc1cc2c(cc1-3)OCO2,10&7.2,-45&-7,4&3,4&-2,11,5&-7,6090&2968
CN(C)C(CNC(=O)c1ccccc1OCc1ccc(Cl)cc1)c1ccco1 (stereo not drawn),2.1,-10,9,0,-1,0,5065
Cn1c(Oc2ccc(F)cc2)c(C=O)c2ccccc21,3.8,-15,16,13,0,4,4849
CSc1nsc(SCC(=O)Nc2cccc(NC(C)=O)c2)n1,-0.7,-15,9,-5,-3,4,3942
CCN=C1SC(C(=O)NCCc2ccccc2)CC(=O)N1CC (stereo not drawn),2.4,-20,x,x,3,10,3053
O=C(Cc1ccccc1)Nc1nc(-c2cccs2)cs1,-11,-17,x,x,8,15,3450
Nc1nnc(CC(=O)N/N=C/c2ccc(-c3cccc(C(=O)O)c3)o2)s1,x,-17,x,x,-10,x,3631
CCS(=O)(=O)n1nc(-c2cccnc2)nc1NCc1ccc(F)cc1,1.5,-7,-3,-4,-3,10,5207
Cc1cc(CNC(=O)CC2C(=O)NCCN2CC(C)(C)C)nn1C (stereo not drawn),3.0,-19,4,2,0,7,2579
CCCOc1ccc(C(=O)CCC(=O)NNC(=O)c2cccs2)cc1,3.8,-2,-6,-8,x,4,3736
C/C(=N\NC(N)=S)C1=CCC2C3CC[C@H]4CC(O)CC[C@]4(C)C3CC[C@]12C (stereo partly drawn),x,-21,x,x,-4,x,2871

# Two entries from above in another layout.
> O=C(Cc1ccccc1)Nc1nc(-c2cccs2)cs1
  RN4220 kill: -11
  PrP 5UTR inh: -17
  Mtb hypoxia rep: x
  Mtb hypoxia rep growth: x
  BJeLR viability: 8
  ugtP null kill: 15
  Bead autofluor: 3450
> Nc1nnc(CC(=O)N/N=C/c2ccc(-c3cccc(C(=O)O)c3)o2)s1
  RN4220 kill: x
  PrP 5UTR inh: -17
  Mtb hypoxia rep: x
  Mtb hypoxia rep growth: x
  BJeLR viability: -10
  ugtP null kill: x
  Bead autofluor: 3631
